Source: PubChem BioAssay (National Center for Advancing Translational Sciences (NCATS))
StopGo reporter: High Throughput Screening for Foot and Mouth Disease Virus Antivirals. human cells with a luciferase reporter of 2A StopGo recoding; control for the full effect not named in the record. AID 1159524, 2015. hit rate 1.2% among 410,000. Potency, µM (top dose mostly 57.9 µM), for inactives: top-dose signal change, negative = less light; active = well fitted falling curve with a large enough effect; inconclusive = small, poorly fitted or top-dose-only effect; inactive = no such curve, though single readings can be large or run the other way; tested in HEK293T cells; note: % is set by controls: 0 for no effect and ±100 for the full control effect; nearly all actives have a fitted effect of over 45% in size; luciferase light after 4 h
NS1 function inh: qHTS Assay for Inhibitors of Influenza NS1 Protein Function. S. cerevisiae slowed by influenza A NS1, growth recovery by OD600. AID 2326, 2010. hit rate 0.4% among 270,000. Potency, µM (titrated, usually from 46.1 µM), for inactives: top-dose activity, positive = more growth; note: actives are rising curves; nearly all actives have a fitted effect of over 50% in size
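S. cerevisiae expressing influenza A NS1, grown in glucose, washed, then diluted 1:100 into pH 6.0 -URA galactose medium with 23 nl compound. Growth recovery read as OD600; NS1-free strain serves as control.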
Cruzain inh noDet: qHTS Assay for Promiscuous and Specific Inhibitors of Cruzain (without detergent) | Cruzipain (Trypanosoma cruzi), P25779 | purified cruzain, Z-FR-AMC fluorescence, no detergent | Potency, µM, inactives show max response, negative = inhibition, usual class: inhibitors | hit rate 2.3% among 200,000; active = well fitted curve in the direction sought with a large enough effect; inconclusive = small, poorly fitted or top-dose-only effect, or another doubt; inactive = no such curve, though single readings can be large; an effect the other way counts as inactive or inconclusive;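 note: plate controls were enzyme without inhibitor for no effect and buffer without enzyme for full effect; nearly all actives have a fitted effect of over 40% in size; top concentration of the series not given in the record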
Target sequence (P25779 123-467 limits assumed): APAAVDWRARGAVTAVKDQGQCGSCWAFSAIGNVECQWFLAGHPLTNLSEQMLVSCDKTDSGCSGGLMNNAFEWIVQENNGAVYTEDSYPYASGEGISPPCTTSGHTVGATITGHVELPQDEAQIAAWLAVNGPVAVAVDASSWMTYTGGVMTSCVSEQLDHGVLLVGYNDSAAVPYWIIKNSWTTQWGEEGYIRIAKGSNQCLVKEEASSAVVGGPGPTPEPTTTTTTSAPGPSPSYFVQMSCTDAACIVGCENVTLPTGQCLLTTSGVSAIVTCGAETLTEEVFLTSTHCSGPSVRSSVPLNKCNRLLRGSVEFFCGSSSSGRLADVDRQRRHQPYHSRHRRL
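Detergent-free condition (0.00005% Triton X-100) in acetate buffer pH 5.5 with DTT. 1.5 nM enzyme and compound were pre-mixed 15 min, then 2 uM Z-FR-AMC substrate added; reaction progress from fluorescence change between first and third reads (60 s).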
SARS PLP yeast: qHTS of Yeast-based Assay for SARS-CoV PLP. AID 485353, 2010. hit rate 0.19% among 330,000. S. cerevisiae expressing SARS-CoV PLpro, growth rescue; control for the full effect not named in the record. Potency, µM (titrated, usually from 32.9 µM), for inactives: at the highest dose activity, positive = growth rescue; note: 0% is about no effect; nearly all actives have a fitted effect of over 55% in size; growth read by luminescence after 48 h
Cruzain Triton: qHTS Assay for Promiscuous and Specific Inhibitors of Cruzain (with detergent). purified cruzain, Z-FR-AMC fluorescence, 0.01% Triton. hit rate 0.43% among 200,000. Potency, µM, without a hit: max response, negative = inhibition, actives largely listed as inhibitors. AID 1478, 2009; active = well fitted curve in the direction sought with a large enough effect; inconclusive = small, poorly fitted or top-dose-only effect, or another doubt; inactive = no such curve, though single readings can be large; an effect the other way counts as inactive or inconclusive;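 note: plate controls were neutral wells for no effect and buffer without enzyme for full effect; nearly all actives have a fitted effect of over 40% in size; top concentration of the series not given in the record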
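Detergent-containing run (0.01% Triton X-100) in acetate buffer pH 5.5 with 5 mM DTT: enzyme at 1.5 nM final, 15 min compound preincubation at room temperature, then 2 uM Z-FR-AMC substrate. Activity taken as 60 s fluorescence increase at 360/450 nm.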
RE007 growth inh: qHTS Assay for Inhibitors of the HIV-1 protein Vpr; S. pombe RE007 Vpr strain, BacTiter-Glo ATP luminescence, 24 h; control for the full effect not named in the record; Potency, µM (highest dose often 92.2 µM), without a hit: at the top dose activity change, negative = less growth; hit rate 0.21% among 360,000; active = well fitted falling curve with a large enough effect; inconclusive = small, poorly fitted or top-dose-only effect; inactive = no such curve, though single readings can be large or run the other way;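 note: % is set by controls: 0 for no effect and ±100 for the full control effect; nearly all actives have a fitted effect of over 50% in size; the assay follows cell death caused by Vpr and the record does not say whether a fall means rescue or toxicity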
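Fission yeast RE007 carrying one integrated HIV-1 vpr copy, seeded at OD 0.01 in PMG+AL medium with 23 nL pinned compound. Grown 24 h at 30 degrees; viability read by BacTiter-Glo luminescence after 5 min.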
Marburg entry inh: qHTS for inhibitors of binding or entry into cells for Marburg Virus | hit rate 1.8% among 300,000 | Marburg virus pseudotyped entry inhibition, cell reporter; control for the full effect not named in the record; about a third of the inactives were read at about 46 µM | Potency, µM (series often up to 37.8 µM), inactives show top-dose activity change, negative = inhibition, most hits filed as inhibitors; active = well fitted inhibition curve with a large enough effect; inconclusive = small, poorly fitted or top-dose-only effect, or effect the other way; inactive = flat fitted curve, though single readings scatter; tested in HEK293 cells; about a fifth of its hits are not listed in these tables; note: % is set by controls: 0 for no effect and ±100 for the full control effect; luciferase read-out
LASV entry inh: qHTS for Inhibitors of binding or entry into cells for Lassa Virus | Lassa virus pseudotype entry inhibition, cell reporter; control for the full effect not named in the record | Potency, µM (highest dose often 37.9 µM), for inactives: top-dose activity change, negative = inhibition, most hits filed as inhibitors | hit rate 1.2% among 300,000 | AID 540256, 2011; active means well fitted inhibition curve with a large enough effect; inconclusive means small, poorly fitted or top-dose-only effect, or effect the other way; inactive means flat fitted curve, though single readings scatter; tested in HEK293 cells; note: % is set by controls: 0 for no effect and ±100 for the full control effect; nearly all actives have a fitted effect of over 50% in size; luciferase read-out
* = called active by the depositor; ? = inconclusive; / = no result given; & = joins results of further samples; [ ] = another dose, or the depositor's remark. Unless noted, calls come from the whole dose curve; as a rule, active means well fitted rising curve with a large enough effect; inconclusive means small, poorly fitted or top-dose-only effect; inactive means no such curve, though single readings can be large or run the other way. Potency is the fitted concentration of half-maximal effect.

Under each structure: LASV entry inh, StopGo reporter, Marburg entry inh, Cruzain Triton, Cruzain inh noDet, RE007 growth inh, SARS PLP yeast, NS1 function inh
Cc1cc(-c2nc(C)c(C(=O)NNS(=O)(=O)c3ccccc3)s2)no1
  /, 2%, /, /, /, 11%, 2%, 0%
CCc1cccc(NC(=S)N2CCC(c3ccccc3)C2)c1 (stereo not given)
  ?, 17%, ?, /, /, -17%, -5%, /
COC(=O)c1ccc(CN(c2ccc(OC)cc2)S(=O)(=O)c2ccccc2)cc1
  ?, 4%, ?, /, /, -1%, /, /
CN(C)c1cccc(C(=O)OCC(=O)NCc2ccco2)c1
  ?, 14%, 15%, -2.5%, -1%, -15%, 17%, -3%
O=C(Nc1nc(-c2ccco2)c(-c2ccco2)s1)C1CCC1
  8%, 0%, 3%, -9.2%, -6%, 30%, -11%, 13%
CCC(C(=O)OC)n1cnc2c(nnn2-c2cccc(Cl)c2)c1=O (stereo not given)
  /, -13%, /, 3.1%, -5%, 13%, 21%, -69%
CCOc1nc2cnccc2n(CC(=O)Nc2ccccc2C(=O)OC)c1=O
  /, -5%, /, /, /, 1%, 4%, 8%
COC(=O)c1ccc(CNC(=O)CSc2nc3sc(C)c(C)c3c(=O)n2C)o1
  ?, /, 0%&3%, 2.9%, -7%, 10%, 0%, -6%
CC1Cc2ccccc2N1CC(=O)Nc1ccc(N2CCOCC2)cc1 (stereo not given)
  9%[46.1 µM], 17%, ?, /, /, 4%, 5%, /
CCOc1ccc(N2CC(C(=O)Nc3cc(S(=O)(=O)N4CCCCC4)ccc3C)CC2=O)cc1 (stereo not given)
  8%, -15%, ?, /, /, 1%, 6%, /
Cc1[nH][nH]c(=O)c1C(c1ccc(F)cc1)c1c(C)[nH][nH]c1=O
  /, -7%, /, /, /, 28%, -7%, -2%
COc1ccc(N(Cc2cc3cccc(C)c3[nH]c2=O)S(C)(=O)=O)cc1
  -22%, -21%, -28%, -5.3%, 13%, 1%, 13%, 1%
O=C(c1sc2cc(F)ccc2c1Cl)N1CCN(c2ccccc2)CC1
  ?, -19%, 2%, -12%, 3%, 26%, -6%, 10%
COc1ccc(C2C3=C(CCCC3=O)Nc3nc(-c4cc(OC)c(OC)c(OC)c4)nn32)cc1OC (stereo not given)
  -2%, 3%, ?, -6.4%, ?, 1%, 3%, 0%
CCOc1ccc(C2C(C(N)=O)=C(C)Nc3nc(SCc4ccccc4F)nn32)cc1 (stereo not given)
  -26%[46.1 µM], -16%, -9%[46.1 µM], 0.4%, 4%, /, /, /
O=C(CNc1ccc(F)cc1F)NC(=O)NCc1ccco1
  -3%, ?, 17%[46.1 µM], /, /, -17%, -1%, 4%
CCOc1ccccc1NC(=S)N1CCN(c2ccccc2F)CC1
  -30%[46.1 µM], -18%, -16%[46.1 µM], /, /, -4%, -3%, 2%
CN1CCC(OC(=O)COc2ccc(C(C)(C)C)cc2)CC1
  -13%, 21%, 14%, 0.6%, 1%, 1%, 5%, 2%
CCOC(=O)C1CCCN(Cc2nc(Cc3ccccc3Cl)no2)C1 (stereo not given)
  /, 1%, /, /, /, -5%, 0%, -2%
COC(=O)CCCC1=CC2=C(c3ccccc3)C(=O)C(C)(OC(=O)C3CCCC3)C(=O)C2=CN1CC1CC1 (stereo not given)
  /, -2%, /, /, /, 0%, 1%, 2%
COc1ccc(-c2noc(C(C)NC(=O)c3ccco3)n2)cc1OC (stereo not given)
  -16%[46.1 µM], -7%, -4%[46.1 µM], /, /, -14%, -2%, 26%
CCNCc1ccccc1OCc1ccccc1
  0%, -23%, -25%, /, /, -12%, 1%, -2%
CN1CCN(C(=O)c2cnn(-c3cccc(F)c3)c2C2CCN(C(=O)OC(C)(C)C)CC2)CC1
  ?, 7%, /, -0.3%, 3%, /, /, /
O=C(NCCOc1ccc(F)cc1)c1ccccc1SCc1ccccc1
  ?, -20%, 11µM*, -7.8%, 0%, 6%, -43%, -42%
CN(C)c1oc(/C=C/c2cccs2)nc1S(=O)(=O)c1ccccc1
  -26%, -4%, ?, /, /, -6%, 0%, 2%
CC1=C(C(=O)Nc2ccccc2C)C(c2cccs2)NC(=S)N1 (stereo not given)
  -22%, 2%, ?, -0.7%, -6%, /, 2%, 12%
Cc1[nH]c(=O)cc2ccccc12
  -1%, 0%, 11%, 6.9%, 6%, 9%, 2%, 1%
CCCCNCC#CCOc1cc(C)ccc1C(C)C
  /, -22%, /, /, /, 8%, -1%, -1%
CCc1ccccc1NC1=NCC(=O)N1Cc1ccccc1
  ?, -18%, 7%, -4.8%, 12%, -14%, -4%, -8%
COC(=O)c1ccc(-c2ccc(C(c3c(C)[nH][nH]c3=O)c3c(C)[nH][nH]c3=O)o2)cc1
  7%[46.1 µM], -16%, 10%[46.1 µM], /, /, 7%, -8%, /
O=C(Nc1ccc(Cc2nc3ccccc3s2)cc1)c1ccncc1
  -12%[46.1 µM], -27%, ?, /, /, -12%, -3%, 1%
Cn1c(SCC(=O)N2CCCC2)nc2cccnc21
  7%, 0%, 4%[46.1 µM], /, /, 23%, 1%, 5%
COc1cc(C)c(NC(=S)Nc2ccc(C)c(Cl)c2)cc1OC
  -17%, -25%, -24%, -8.6%, -6%, -24%, 3%, 9%
CCCN1CCCc2cc(CN(CCCN3CCOCC3)C(=O)Nc3ccc(OCC)cc3)ccc21
  ?, -14%&-16%, ?, -2.1%&0.9%, -7%&-3%, -6%, 8%, 5%
COc1cccc(C2c3c(oc4ccc(C)cc4c3=O)C(=O)N2CCCN2CCOCC2)c1OC (stereo not given)
  11%[46.1 µM], 3%, /, -5.3%, -5%, /, /, /
COC(=O)C1=C(N)OC2=C(C(=O)CCC2)C1c1ccc2c(c1)OCO2 (stereo not given)
  /, 0%, /, /, /, 2%, 9%, -6%
N#Cc1c2n(c3c(=O)n(Cc4ccc(Cl)cc4)cnc13)CCCCC2
  ?, -22%, ?, -3.3%, 3%, 15%, -11%, -50%
NC(=O)CC(NC(=O)Cc1ccc(Cl)cc1)c1ccc(NCCc2ccccc2F)c([N+](=O)[O-])c1 (stereo not given)
  /, -9%, /, /, /, -1%, 2%, 12%
Cc1ccccc1-n1c(SCC(=O)NC(N)=O)nc2sc(-c3ccccc3)cc2c1=O
  -4%, -7%, ?, -9.1%, ?, 4%, 13%, 27%
Cc1ccc(NC(=O)C(c2ccccc2)N(C)C)cc1Cl (stereo not given)
  ?, 74%[activator], 11µM*, /, /, 7%, -1%, /
COC(=O)C1CN(C(=O)C(C)Oc2ccccc2Cl)c2ccccc2O1 (stereo not given)
  2%[46.1 µM], -16%, ?, /, /, 3%, -1%, -5%
CC(=O)N1CCN(c2ccc(NC(=O)c3ccc(OCc4ccccc4)cc3)cc2)CC1
  /, -9%, /, /, /, -14%, 0%, -2%
O=C(COC(=O)c1cccs1)NCCN1C(=O)CSC1=O
  5%, 44%[activator], 1%[46.1 µM], 2.8%, 12%, 9%, 4%, 0%
Cc1oc(-c2ccc(C(=O)NCc3ccc(F)cc3)cc2)nc1CS(=O)c1ccccc1 (stereo not given)
  -1%[46.1 µM], ?, /, -1.0%, 9%, /, /, /
COc1ccc(OC)c(/C=C/C(=O)OCC(=O)Nc2cccc(C(C)=O)c2)c1
  1%, -6%, ?, -16%, -9%, -2%, 15%, 7%
COc1ccccc1N1CCN(C(=O)C2CCN(S(=O)(=O)c3ccccc3)CC2)CC1
  -16%, /, -1%, 1.4%, ?, 0%, -2%, -8%
C=CCN1C(=O)C(Cc2ccc(F)cc2)S/C1=N/N=C/c1ccco1 (stereo not given)
  -4%, -11%, -4%, -5.0%, 9%, 14%, 11%, 6%
Cc1ccc(NC(=O)NCc2cccnc2)cc1Cl
  /, 45%[activator], /, /, /, -9%, -5%, 1%
O=C(O)c1ccc2c(c1)C(=O)N(c1cccc(S(=O)(=O)Nc3cccc(C(F)(F)F)c3)c1)C2=O
  -21%[46.1 µM], 17%, 2%[46.1 µM], /, /, -2%, 4%, 4%
COc1ccc(Cn2c(=O)[nH]c3cc(C(=O)Nc4ccccc4C)ccc32)cc1
  /, -18%, /, /, /, 21%, 3%, 0%
COC(=O)c1ccc(Nc2ncnc3sccc23)cc1
  /, 19%, /, /, /, -7%, -3%, -10%
COc1ccccc1OCCn1c(=O)n(C)c2ccccc21
  11%[46.1 µM], 10%, ?, /, /, 1%, 0%, -10%
O=C(CC1NCCNC1=O)Nc1cccc([N+](=O)[O-])c1 (stereo not given)
  /, 40%[activator], /, /, /, -11%, 0%, 8%
NC(=O)c1oc2ccccc2c1NC(=O)CS(=O)(=O)c1ccccc1
  15%[46.1 µM], -6%, 4%[46.1 µM], /, /, 4%, 0%, -10%
O=C(Nc1cccc(S(=O)(=O)N2CCOCC2)c1)C1CCCN(C(=O)c2ccc(Cl)cc2)C1 (stereo not given)
  /, -20%, /, /, /, 4%, 5%, -11%
CC(NCc1ccc(Cl)c(Cl)c1)C(O)c1ccccc1 (stereo not given)
  25%, /, ?, 1.3%, 1%, -5%, -6%, -7%
Cc1ccc(NC(=O)C2CCCCC2C(=O)O)cc1C (stereo not given)
  /, -8%, /, /, /, -11%, 0%, -1%
Cc1ccc(S(=O)(=O)NCCc2cn3nc(C)c(C)nc3n2)cc1C
  /, 11%, /, /, /, 2%, -1%, -1%
